AID504770 – growth inhibitors of E. coli YBA685 in a screen for V. cholerae RctB (chromosome II replication) inhibitors. hit rate 0.27% among 130,000. z-score (no concentration beside the values). E. coli YBA685 rctB-dependent plasmid, OD600 growth, 3 h; stronger effect = lower value;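 active = z-score under -2 on both plates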;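 also: wells of about 30 µL received 100 nL stock; score is relative to mean and SD of the test wells; the first replicate is given; strong numbers were not always called active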
CapD inh – inhibitors of Bacillus anthracis CapD enzyme. z-score (test concentration not listed). purified CapD enzyme, fluorescence intensity read-out; stronger effect = lower value; some hits fall short of the stated cut. hit rate 0.23% among 140,000;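 active = z-score under -4 in either of two replicates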;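 also: stock transfer was 100 nL into about 40 µL; score is relative to mean and spread of the plate; one replicate is shown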
* = called active by the depositor; / = no result given. These rows are one share of the data, so the mix of outcomes need not match the whole.

The line under a structure holds: AID504770	CapD inh
- COC(=O)c1sccc1NS(=O)(=O)c1ccc(F)cc1F
→ 1.15	-1.36
- Cc1cccc(C)c1NC(=O)C1(N(Cc2ccco2)C(=O)Cc2nc(N)n[nH]2)CCCCC1
→ -0.9	0.125
- CCOC(=O)CCN1N=C(c2ccc(CC)cc2)CCC1=O
→ 1.3	-0.465
- O=C1c2ccccc2C(=O)N1CCSc1ncnc2sc3c(c12)CCCC3
→ /	-0.08
- CC1CN(C(=O)CCC(=O)N2CCC(C(N)=O)CC2)c2ccccc2O1 (centres undefined)
→ -0.8	-0.515
- Cc1cc(S(N)(=O)=O)ccc1OCC(=O)O
→ -1.3	/
- COc1cc(Br)c(O)c(/C=N/NC(=O)c2ccc(Cl)cc2)c1
→ /	-0.095
- O=C(NCc1ccco1)c1cccc2c1C(=O)N(Cc1cccnc1)C2
→ -0.35	-1.52
- Cc1ccc(/C=C/C(=O)Oc2ccc(-c3ccc(C#N)cc3)cc2)o1
→ 0.2	/
- O=C(Nc1nc(-c2ccc(I)cc2)cs1)c1sc2ccccc2c1Cl
→ /	-0.46
- CC(C)N(Cc1ccc(N(C)C)cc1)S(=O)(=O)c1ccccc1[N+](=O)[O-]
→ /	-0.78
- CNC(=O)c1cc2sccc2nc1C(F)(F)F
→ /	-0.4
- COC(=O)c1ccc(Br)o1
→ /	0.405
- COc1ccc(C2C3=C(CC(C)(C)CC3=O)Nc3nc(SCCN4CCOCC4)[nH]c(=O)c32)cc1OC (centres undefined)
→ 0.35	0.215
- CC(C)(C)c1ccc(Oc2ccc(N)cn2)cc1
→ /	24
- CC1=C(C(=O)Nc2ccccc2)C(c2ccc(Cl)cc2)n2nnnc2N1 (centres undefined)
→ /	0.025
- Cc1onc(-c2ccccc2)c1C(=O)N(Cc1ccccc1)C(C)C
→ -0.45	0.215
- CCC(Sc1nc2ncnc(N)c2[nH]1)C(=O)O (centres undefined)
→ 0	3.21
- CN(C)CCNC(=O)c1ccc2c(c1)N(Cc1ccccc1)C(=O)CS2
→ -0.05	0.64
- COc1ccccc1N=C(NOCc1ccccc1)c1nonc1N
→ /	-0.45

By substructure: those above with two or more sulfur atoms
The line under a structure holds: AID504770	CapD inh
- COC(=O)c1sccc1NS(=O)(=O)c1ccc(F)cc1F
→ 1.15	-1.36
- O=C1c2ccccc2C(=O)N1CCSc1ncnc2sc3c(c12)CCCC3
→ /	-0.08
- O=C(Nc1nc(-c2ccc(I)cc2)cs1)c1sc2ccccc2c1Cl
→ /	-0.46

(listing goes on)
The line under a structure holds: AID504770	CapD inh
- CCc1ccc(C2=Nc3ccccc3NC(c3ccc(Cl)cc3)C2)cc1 (centres undefined)
→ /	-0.1
- O=C(O)c1cc(-c2ccco2)on1
→ -0.85	/
- COc1ccccc1CCOC(=O)NC(Cc1ccccc1)C(=O)Nc1ccc([N+](=O)[O-])cc1 (centres undefined)
→ /	-0.815
- Cc1ccc(CSCc2ccc(C(=O)O)o2)cc1
→ -0.75	0.265
- CCCCn1c(=O)c2ccccc2c2ccccc2c1=O
→ 0.7	-0.08
- O=C(CSc1nc(Nc2ccc(F)c(F)c2)c2ccccc2n1)NCC1CCCO1 (centres undefined)
→ /	0.28
- CC(C)C(=O)Nc1ccc2[nH]c(=O)[nH]c2c1
→ 1.7	0.15
- COc1ccc(CCN=Cc2c(C)[nH]n(-c3ccc([N+](=O)[O-])cc3)c2=O)cc1OC
→ /	-0.215
- CCN(CC)C(=O)c1sc2nc(-c3cccs3)cc(C(F)(F)F)c2c1N
→ 0.95	7.63
- NS(=O)(=O)c1ccc(Sc2cccs2)s1
→ /	-0.1
- Cc1ccc(-c2nc(OC(=O)N(C)C)cc(C(F)(F)F)n2)cc1Cl
→ 0.3	0.695
- COc1cccc(C(=O)NCCn2c(C)cc3ccccc32)c1
→ 1.1	-0.665
- O=C(CNC(=O)c1ccccc1)NC1CCCC1
→ -0.7	/
- O=C(C1=NN(c2ccccc2)C(=O)CC1)N1CCN(c2ncccn2)CC1
→ 0.75	/
- CC1=C(C(=O)OCCC(C)C)C(c2ccccc2I)NC(=O)N1C (centres undefined)
→ /	0.14
- O=C(Nc1ccc(Br)cc1)c1cc(=O)c2ccccc2o1
→ 0.5	0.815
- CC(=O)OCc1ccccc1S(=O)(=O)c1ccccc1COC(C)=O
→ 0.75	0.965
- CCOC(=O)Nc1nc2ccc(OC)cc2s1
→ 0.35	-1.5
- CCOc1ccc(C2=NN3C(C2)c2cc(Cl)ccc2OC3c2cccc(OC)c2OC)cc1 (centres undefined)
→ /	-0.365
- Cc1cc2c(n1-c1ccc(C(=O)NCCc3cccs3)cc1)CCCC2
→ 0.6	-0.055

One compound at a time (already shown).
`NS(=O)(=O)c1ccc(Sc2cccs2)s1` across the screens: AID504770: /; CapD inh: -0.1
`CCOC(=O)Nc1nc2ccc(OC)cc2s1` across the screens: AID504770: 0.35; CapD inh: -1.5

New compounds follow.
The line under a structure holds: AID504770	CapD inh
- O=c1/c(=C\c2ccc(-c3ccc(Cl)cc3[N+](=O)[O-])o2)sc2nc3ccccc3n12
→ /	0.43
- COc1cc(C2CC(=O)NC(SCC(=O)Nc3ccc(Br)cc3)=C2C#N)ccc1OCc1ccccc1 (centres undefined)
→ /	1.15
- CCOc1ccc(NC(=O)NC(=O)N(C(C)C)S(C)(=O)=O)cc1
→ -0.85	/
- CCC(=O)N1CCc2cc(Br)cc(S(=O)(=O)CCC(=O)N(C)c3ccc(OC)cc3OC)c21
→ -0.7	0.035
- Cc1ccc2oc(C(=O)N(Cc3ccccc3)C3CCS(=O)(=O)C3)c(C)c2c1 (centres undefined)
→ -0.15	-0.36
- FC(F)(F)c1cnc(SCc2nc3ccccc3o2)c(Cl)c1
→ -0.6	/
- CCCCOC(=O)CSc1nc(N)c(C#N)c(-c2ccc(OC)cc2)c1C#N
→ /	5.62
- Clc1ccc(-c2ccnc(Oc3cc(Cl)ccc3Cl)n2)cc1
→ /	-0.46
- CC(=O)OC[C@H]1O[C@@H](Oc2ccccc2)[C@H](OC(C)=O)[C@@H](OC(C)=O)[C@H]1OC(C)=O
→ -1.15	-0.025
- O=c1cc(-c2ccccc2)n(-c2ccccc2)cn1
→ 2.7	-0.54
- FC(F)(F)c1ccc(-c2noc(-c3ccc(Cl)nc3)n2)cc1
→ -0.7	0.6
- C=CCSc1nc(N2CCOCC2)c2sc3nc(C)cc(C)c3c2n1
→ /	1.64
- CCN1C(=O)S/C(=C\c2cccc(Cl)c2)C1=O
→ 1.6	-0.195
- O=C(COc1ccccc1)Nc1ccn(Cc2ccccc2)n1
→ -0.75	-0.61
- CCN(C(=O)CN1C(=O)COc2ccccc21)c1nc2c(C)cccc2s1
→ 0.25	/
- Cc1nc(-c2ccc(S(=O)(=O)N3CCN(Cc4ccccc4)CC3)s2)cs1
→ -0.1	0.27
- COCCNC(=O)c1ccccc1NC(=O)c1cccc(C)c1
→ -0.9	-0.395
- CCC(=O)Nc1ccc2nc(C)[nH]c2c1
→ -0.8	0.325
- CO/N=C(/C(=O)N[C@@H]1C(=O)N2C(C(=O)[O-])=C(C[N+]3(C)CCCC3)CS[C@H]12)c1csc(N)n1
→ /	-0.355
- O=C(OCc1ccc(F)cc1)c1ccccc1F
→ -0.1	-0.14
- Nc1ncnc2nc(SCc3nc4ccccc4c(=O)n3-c3cccc(C(F)(F)F)c3)[nH]c12
→ /	0.185
- Cc1c(C(=O)N2CCN(S(=O)(=O)c3ccccc3)CC2)oc2ccc(Br)cc12
→ -0.65	/
- O=C(O)C1C2C=CC3(O2)C1C(=O)N(Cc1ccccc1)C3Cc1ccccc1 (centres undefined)
→ -0.5	-0.14
- CCOc1ccccc1C(=O)Nc1ccc(-n2nncc2C(C)(C)C)cc1
→ -0.45	1
- O=C(O)CCc1nc(-c2ccc(C(F)(F)F)cc2)no1
→ -0.65	-0.645
- COc1ccc2nc(SC)nc(C)c2c1
→ -1.1	/
- O=C(C1=Cc2sc3c(c2CS1)CCCC3)N1CCC2(CC1)OCCO2
→ 0.55	-0.97
- Cc1ccc(S(=O)(=O)CCC(=O)O)cc1
→ -0.75	0.045
- Cc1ccc(NC(=O)CC(c2ccccc2)c2ccccc2)cc1C
→ 1	-0.21
- Cc1nn2c(C(F)(F)F)cc(-c3ccccc3Cl)nc2c1Br
→ /	0.565
- CN1CCN(Cc2cc(C(C)(C)C)c(O)c(C(C)(C)C)c2)CC1
→ -0.95	-0.23
- CC(OC(=O)c1ccncc1)C(=O)NC1CCCC1 (centres undefined)
→ -0.45	/
- Cc1c(C(=O)NCCN2CCOCC2)sc2nc(-c3ccccc3)cn12
→ 1.2	0.715
- CC(=O)Nc1ccc(/C=N/NC(=O)CN2CCSCC2)cc1
→ 1.05	-0.345
- Cc1ccc(NC(=O)Cn2cccc2)cc1
→ 0.1	2.83
- CCn1c(Cc2ccccc2)nnc1SC(C#N)Cc1ccc(C)cc1 (centres undefined)
→ -0.1	/
- O=C(/C=C/c1cccs1)N1CCCCCC1
→ -0.7	-1.79
- CCOC(=O)C1=C(C)NC(=O)NC1/C=C/c1ccccc1 (centres undefined)
→ -0.95	/
- CCc1c(C)nc2cc(-c3ccc(Cl)cc3)[nH]n2c1=O
→ -0.7	4.6
- O=C(NCCc1nc2ccccc2[nH]1)c1cccs1
→ -0.7	0.235

(next part)
compound,AID504770,CapD inh
CCc1c(C)nc2nc[nH]n2c1=O,-1.65,-0.555
CC(C)(C)NC(=O)COc1ccc2oc3c(c2c1)CCCC3,-0.45,/
CN1C(=O)C2C(c3ccc(N(C)C)cc3)NN(Cc3ccccc3)C2C1=O (centres undefined),-0.75,/
COc1ccc(-c2nnc3c4ccccc4c(C)nn23)cc1S(=O)(=O)N1CCN(CCO)CC1,-0.75,-0.315
CCN(C(=O)c1cc2c(C)nc3ccccc3c2o1)c1cc(Cl)ccc1OC,0.65,0.24
CNC(=O)NC(=O)CSc1nnc(-c2ccccc2)o1,-0.45,/
CC(C)c1nc(=S)c2ccccc2[nH]1,-1.1,/
CC(O)CNCc1ccc2c(c1)OCO2 (centres undefined),1.2,/
CS(=O)(=O)c1cnc(-c2cccnc2)nc1-c1ccccc1,/,-0.77
O=C(Oc1cccc(Cl)c1Cl)c1ccncc1,-1.5,/
Cc1ccc(NC(=O)CSc2cn(C)c3ccccc23)cc1,-1.1,-0.805
CCn1c(C(=O)NC2CCCC2)cc2sc(Cl)cc21,0.7,-0.585
Cc1ccc(-c2cnc3ccccc3n2)cc1N,-0.7,-3.41
Cc1ccc(C)c(NC(=O)COC(=O)CC2CC3CCC2C3)c1 (centres undefined),1.15,-0.705
CCCCNC(=O)CSc1nc2sc(C(=O)OCC)c(C)c2c(=O)n1Cc1ccc2c(c1)OCO2,/,6.59
Cc1ccc(Nc2nc(Nc3ccc(C)cc3)nc(Sc3nncn3C)n2)cc1,0.6,-0.435
CNC(=O)c1ccc(N)cc1,-0.3,0.095
Cc1cc(C)n(-c2ccc(COC(=O)Cc3n[nH]c(=O)c4ccccc34)cc2)n1,-0.35,/
O=C(CC1NC2CCCCC2NC1=O)Nc1cccc(C(F)(F)F)c1 (centres undefined),0.9,0.095
O=C(COC(=O)C1CC2C=CC1C2)Nc1ncc(Cl)cc1Cl (centres undefined),0.6,0.59
CC1=C/C(=N\NC(=S)Nc2cc(C)ccc2C)CC1,-0.35,/
O=C(Nc1ccccc1)c1cccc(S(=O)(=O)NCCC23CC4CC(CC(C4)C2)C3)c1,-0.05,0.015
CCOC(=O)c1cc2cccc(NS(=O)(=O)c3ccccc3S(C)(=O)=O)c2[nH]1,/,-0.315
Nc1nnc(CCC(=O)O)c(=O)n1N,-0.5,/
COCc1oc2c(cc(NS(=O)(=O)c3c(C)cc(C)cc3C)c3ccccc32)c1C(=O)OC,/,0.755
c1ccc2sc(SCSc3nnc4sc5ccccc5n34)nc2c1,-0.45,0.2
CCOc1cc2[nH]c(=S)n(CCCC(=O)O)c(=O)c2cc1OCC,-0.2,0.28
OCC1(CO)COC(COc2ccccc2)=N1,-0.2,0.35
O=c1n(-c2cccc(Cl)c2)c(=O)n(Cc2cccc(F)c2)n1Cc1cccc(F)c1,-0.5,-0.29
COc1cccc(Nc2ccc3noc4c3c2C(=O)c2ccccc2-4)c1,/,0.305

Individual results from above.
O=C(Nc1ccccc1)c1cccc(S(=O)(=O)NCCC23CC4CC(CC(C4)C2)C3)c1 @ AID504770: -0.05
CNC(=O)c1ccc(N)cc1 @ CapD inh: 0.095

(more compounds)
compound,AID504770,CapD inh
CC(C)(CO)NC(=O)c1cc(-c2ccc(F)cc2)no1,1.15,-0.075
CCOC(=O)c1c(C)oc2c(Cl)cc(NS(=O)(=O)c3cccc([N+](=O)[O-])c3)cc12,/,-0.04
O=C(Oc1ccc2c(=O)c(Oc3ccccc3Br)coc2c1)c1ccco1,/,0.04
COc1ccc(C(=O)n2cc(-c3ncc(C(F)(F)F)cc3Cl)cn2)cc1,/,-0.455
O=C(/C=C/c1ccco1)Nc1ccc2oc(-c3ccccc3)nc2c1,0.35,1.4
CCOC(=O)c1sc2c(c1O)c(=O)n(-c1ccccc1)c(=S)n2-c1ccccc1,-0.9,-1.42
CCOC(=O)c1nn(-c2ccccc2)c2nc(Nc3ccc(C)cc3)cc(=O)n12,2.35,2.56
Cc1ccsc1/C=C1\SC(=N)N(c2ccc3c(c2)OCO3)C1=O,/,-0.325
Cc1cc(C)c2nc(N3CCCC(C(=O)NC4CCCc5ccccc54)C3)sc2c1 (centres undefined),-0.25,0.135
COc1ccc(-c2nc3ccc4ccccc4c3c3c2CCC3)cc1,-0.25,-0.18
O=C(NCCc1c[nH]c2ccc(O)cc12)OCc1cccc(Br)c1,/,-0.67
O=C(CN1CCN(C/C=C/c2ccccc2)CC1)Nc1ccc2c(c1)OCCCO2,0.4,/
COCc1cc(=O)[nH]c(COc2ccc(Cl)cc2)n1,-0.15,-0.38

Screens (PubChem)
